AF4-AF9 inh: inhibitors of human MLL-AF4/AF9 interaction; AlphaScreen, biotin-AF4 peptide binding to FLAG-AF9; inhibition, % at 10 µM; actives 0.47% (n = 350,000); AID 651704;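 active means every replicate reaching a set inhibition limit, whatever the replicate mean, cut at about 25% in these data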;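 further: 0% = plate neutral control median and 100% = total signal loss; the record names both 10 and 1 µM as test concentration; the first replicate is given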
Target sequence (P42568 whole entry, looked up): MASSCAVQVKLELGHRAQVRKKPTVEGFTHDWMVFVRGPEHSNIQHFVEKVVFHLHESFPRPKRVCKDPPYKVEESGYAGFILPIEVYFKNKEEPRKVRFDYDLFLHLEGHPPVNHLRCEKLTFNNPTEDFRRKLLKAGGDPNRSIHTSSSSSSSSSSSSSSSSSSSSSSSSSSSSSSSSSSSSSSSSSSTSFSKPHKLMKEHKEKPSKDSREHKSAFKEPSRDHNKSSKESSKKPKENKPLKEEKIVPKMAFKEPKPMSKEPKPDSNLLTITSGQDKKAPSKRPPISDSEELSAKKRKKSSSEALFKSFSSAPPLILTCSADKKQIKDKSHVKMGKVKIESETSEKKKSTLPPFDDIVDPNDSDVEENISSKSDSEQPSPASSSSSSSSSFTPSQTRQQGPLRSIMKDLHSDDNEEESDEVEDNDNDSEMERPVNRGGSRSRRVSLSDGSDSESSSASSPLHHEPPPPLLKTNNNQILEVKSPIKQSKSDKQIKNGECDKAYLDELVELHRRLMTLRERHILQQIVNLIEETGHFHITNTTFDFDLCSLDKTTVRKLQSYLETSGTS
rRNA inh HTS: inhibitors of bacterial rRNA selective over humanized ribosomes | E. coli WT GFP vs humanized-ribosome RFP mutants, fluorescence, 24 h; hits give low values; DMSO median 0, no signal -100 | actives 1.6% (n = 350,000) | GFP signal change (wild-type ribosome), % (no concentration beside the values);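 active means significant combined selectivity score with lowered wild-type GFP, culture density cut under 30%, mutant RFP and density less affected; inactive means any of these conditions unmet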; further: one replicate is shown; some compounds called inactive have numbers as strong as hits
rRNA inh HTS OD600: further read-out of rRNA inh HTS, marked with its call; OD600 change, %; measured here: OD600 growth;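 optical density of the mix in the first replicate; 0 = DMSO median and -100 = no signal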
rRNA inh HTS RFP: second read-out of rRNA inh HTS, no call of its own (marks repeat the call); RFP signal change, %; measured here: RFP humanized mutant strains;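 first replicate; 0 = DMSO median and -100 = no signal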
The depositor's hits bear a star; i = inactive; / = no result given; & = joins results of further samples.

SMILES	AF4-AF9 inh	rRNA inh HTS	rRNA inh HTS OD600	rRNA inh HTS RFP
C[C@@H]1CCCCO[C@H](CN(C)C)[C@H](C)CN([C@H](C)CO)C(=O)c2cc(NC(=O)Cc3ccccc3)ccc2O1	-1.7	3	1	0.1
COc1ccc(NC(=O)N(C)C[C@@H]2Oc3ccc(NC(=O)Cc4ccccc4)cc3CC(=O)N([C@H](C)CO)C[C@H]2C)cc1	-1.4	2	5	-1.4
COc1ccccc1S(=O)(=O)N[C@H]1C=C[C@H](CC(=O)N2CCN(C)CC2)O[C@H]1CO	-18	0	2	-0.9
C[C@H]1CN([C@@H](C)CO)C(=O)c2cc(NC(=O)C3CCCCC3)ccc2O[C@@H]1CN(C)Cc1ccccc1	-3.8	1	-1	-1.3
COc1ccc(CCNCCC(c2ccccc2)c2ccccc2)cc1OC	6.4	4	-2	-0.9
CCCC#Cc1cnc2c(c1)C(=O)N([C@@H](C)CO)C[C@@H](C)[C@@H](CN(C)C(=O)CN1CCOCC1)O2	-1.9	4	8	-1.5
CCC(=O)N(C)C[C@H]1[C@H](c2ccccc2)[C@@H](CO)N1C(=O)Cc1ccncc1	-7.0	6	7	-2.7
CCCC#Cc1ccc2c(c1)[C@@H]1[C@@H](CCN1C(=O)CC1CC1)[C@@H](CO)N2C	1.8	1	5	-0.6
C[C@@H](O)C#Cc1cnc2c(c1)C(=O)N([C@@H](C)CO)C[C@H](C)[C@@H](CN(C)Cc1cccc(F)c1)O2	-1.4	1	4	-2.1
C[C@@H]1CN([C@@H](C)CO)C(=O)c2cc(NC(=O)C3CCCCC3)ccc2O[C@@H]1CN(C)C	-2.4	1	4	-1.0
CCCC(=O)Nc1ccc2c(c1)C(=O)N(C)C[C@H](OC)[C@@H](C)CN(CC1CCCC1)[C@@H](C)CO2	4.6	-2	-5	-2.3
O=C1C2CCCN2C(=S)N1c1cc(Cl)ccc1Cl (configuration not stated)	-1.5	2	7	0.0
COC1=CC(=O)C=C(OC)C1=O	-7.6	57	7	-2.7
O=C(C1CCC1)N1CC2(C1)[C@H](c1ccccc1)[C@@H](CO)N2Cc1ccc(Cl)cc1	-3.4	-3	-14	-0.7
COC(=O)c1ccccc1COc1cccn2c(N(C)CC3CC3)c(C)nc12	5.1	-25	-79	-22

Arranged by value in rRNA inh HTS (lowest first): 6 from the list above
SMILES	AF4-AF9 inh	rRNA inh HTS	rRNA inh HTS OD600	rRNA inh HTS RFP
CCCC(=O)Nc1ccc2c(c1)C(=O)N(C)C[C@H](OC)[C@@H](C)CN(CC1CCCC1)[C@@H](C)CO2	4.6	-2	-5	-2.3
C[C@@H]1CN([C@@H](C)CO)C(=O)c2cc(NC(=O)C3CCCCC3)ccc2O[C@@H]1CN(C)C	-2.4	1	4	-1.0
COc1ccc(NC(=O)N(C)C[C@@H]2Oc3ccc(NC(=O)Cc4ccccc4)cc3CC(=O)N([C@H](C)CO)C[C@H]2C)cc1	-1.4	2	5	-1.4
CCCC#Cc1cnc2c(c1)C(=O)N([C@@H](C)CO)C[C@@H](C)[C@@H](CN(C)C(=O)CN1CCOCC1)O2	-1.9	4	8	-1.5
CCC(=O)N(C)C[C@H]1[C@H](c2ccccc2)[C@@H](CO)N1C(=O)Cc1ccncc1	-7.0	6	7	-2.7
COC1=CC(=O)C=C(OC)C1=O	-7.6	57	7	-2.7

(listing goes on)
SMILES	AF4-AF9 inh	rRNA inh HTS	rRNA inh HTS OD600	rRNA inh HTS RFP
CCCNC(=O)N1C[C@H](O)COC[C@@H]2O[C@@H](CC(=O)N3CCOCC3)CC[C@H]21	-2.6	3	2	-2.6
Cc1ccc(S(=O)(=O)Nc2cccc3c2O[C@@H](CN(C)S(=O)(=O)c2cccs2)[C@H](C)CN([C@@H](C)CO)C3=O)cc1	0.9	0	-3	-0.1
CN(C)C(=O)c1cccc(-c2ccc3c(c2)[C@H]2[C@H](CCN2C(=O)C2CC2)[C@@H](CO)N3)c1	-2.2	0	12	-2.7
C[C@@H]1CN([C@@H](C)CO)C(=O)c2cc(-c3cncnc3)cnc2O[C@H]1CN(C)C(=O)c1cccc(F)c1	-0.7	0	-3	-0.6
C[C@@H]1CN([C@H](C)CO)C(=O)Cc2cc(NC(=O)Nc3ccc(F)cc3)ccc2O[C@@H]1CN(C)Cc1ccncc1	0.7	-10	-46	16
CCCNC(=O)Nc1ccc2c(c1)C(=O)N(C)C[C@@H](OC)[C@@H](C)CN[C@H](C)CO2	-1.8	0	-3	-0.4
C[C@@H]1CN([C@@H](C)CO)C(=O)c2cc(C#CC3CCCCC3)cnc2O[C@H]1CN(C)S(C)(=O)=O	-3.8	-1	-3	2.3
N#C[C@@H]1[C@@H](c2ccc(C#Cc3cccnc3)cc2)[C@@H](CO)N1C(=O)C1CCCC1	-1.8	2	5	-1.1
C[C@@H]1CCCCO[C@@H](CN(C)C(=O)CCC(F)(F)F)[C@H](C)CN([C@@H](C)CO)C(=O)c2cc(NC(=O)Cc3ccccc3)ccc2O1	-2.7	-1	-2	2.1
COc1ccc(-c2ccccc2[C@@H]2[C@H](C#N)N(C(=O)c3cccnc3)[C@H]2CO)cc1	0.7	-4	-7	1.0
CCCNC(=O)N1[C@@H](CO)[C@@H]2c3ccccc3N(C(=O)Nc3ccc(F)cc3)C[C@@H]21	-0.4	-1	6	-2.0
CC(C)NC(=O)N(C)C[C@@H]1Oc2cc(C#Cc3ccc(F)cc3)ccc2S(=O)(=O)N([C@@H](C)CO)C[C@@H]1C	3.7	-4	-31	19
Cc1noc(C)c1NC(=O)N(C)C[C@H]1Oc2c(NC(=O)C3CCOCC3)cccc2C(=O)N([C@H](C)CO)C[C@@H]1C	-1.9	4	14	-1.6
COc1ccc(CN(C)C[C@H]2Oc3ccc(NS(=O)(=O)c4ccc(Cl)cc4)cc3C(=O)N([C@@H](C)CO)C[C@H]2C)cc1	-6.8	-1	-6	13
COc1ccccc1-c1ccc([C@@H]2[C@@H](CO)N3CCCCN(C(=O)c4cccnc4)C[C@H]23)cc1	-2.3	-2	17	-1.0
O=C(NCC[C@@H]1CC[C@H](NC(=O)C2CCCCC2)[C@H](CO)O1)Nc1ccc(Cl)cc1	4.9	-9	6	3.2
CCCC(=O)Nc1ccc2c(c1)OC[C@H](C)N(Cc1ccc(-c3ccccn3)cc1)C[C@H](C)[C@H](OC)CN(C)C2=O	2.2	-4	-3	-1.9
C[C@@H]1CN([C@@H](C)CO)C(=O)c2ccccc2-c2ccccc2CO[C@@H]1CN(C)CC1CC1	-4.8	1	0	2.9
CCc1nc2c(OCC(=O)C(C)(C)C)cccn2c1N(C)C(=O)c1ccccc1F	-5.6	3	8	-3.5
Cc1cccc(S(=O)(=O)N[C@@H]2CC[C@H](CCNC(=O)CCN3CCCCC3)O[C@@H]2CO)c1	-1.4	-1	1	-2.8
CNC[C@H]1Oc2c(NS(=O)(=O)c3ccc(F)cc3)cccc2C(=O)N([C@@H](C)CO)C[C@H]1C	0.0	3	-1	0.0
CCCN(C)C[C@@H]1Oc2cc(Br)ccc2S(=O)(=O)N([C@H](C)CO)C[C@@H]1C	-5.3	2	5	-3.0
C[C@@H]1CN([C@@H](C)CO)S(=O)(=O)c2ccc(C3=CCCC3)cc2O[C@H]1CN(C)CC1CC1	0.7	4	7	3.6
CNC[C@@H]1Oc2ccc(NC(=O)Cc3ccccc3)cc2CC(=O)N([C@@H](C)CO)C[C@H]1C	-2.3	2	2	-2.6
CO[C@H]1CN(C)C(=O)c2ccc(NC(C)=O)cc2OC[C@@H](C)N(C(=O)C2CCOCC2)C[C@H]1C	-2.4	1	-5	-1.0
O=C(CN1CCOCC1)N[C@@H]1CC[C@@H](CCNC(=O)Nc2cc(F)ccc2F)O[C@@H]1CO	2.8	-1	-8	1.7
C[C@H](CO)N1C[C@H](C)[C@@H](CN(C)C)Oc2ccc(N(C)C)cc2C1=O	-0.9	4	2	-0.3
O=C1NC[C@@H](CCCCN2CCN(CCc3ccc(O)cc3)C(=O)C2=O)N(Cc2ccccc2)C1=O	1.0	16	31	-1.0
C[C@H](CO)N1C[C@H](C)[C@@H](CN(C)C(=O)Nc2ccccc2)Oc2ccc(NC(=O)Cc3ccccc3)cc2CC1=O	1.0&1.1	5	0	0.7
CC(C)[C@H](NC(=O)OC(C)(C)C)c1cc(C(=O)NCCc2c[nH]c3ccccc23)c(N)s1	0.1	-5	7	3.3
CCC(=O)Nc1ccc2c(c1)C(=O)N(C)C[C@@H](OC)[C@H](C)CN(C(=O)c1cnccn1)[C@H](C)CO2	0.0	4	6	-1.4
O=C(CN1CCOCC1)NCC[C@@H]1CC[C@@H](NC(=O)Nc2ccccc2)[C@@H](CO)O1	-2.2	-4	-2	-0.8
CC=Cc1ccc2n(c1=O)C[C@@H]1[C@@H](CO)[C@H](C(=O)NCc3ccc4c(c3)OCO4)[C@H]2N1C(=O)COC (mixture of isomers)	-2.8	0	8	1.4
O=C(C[C@@H]1CC[C@@H]2[C@H](COC[C@H](O)CN2C(=O)Cc2ccccc2)O1)NC1Cc2ccccc2C1	-0.6	i	/	/
C[C@@H](NC(=O)[C@@H]1CCCN1C(=O)[C@@H]1CCCN1)c1ccccc1	-0.8	5	2	7.3
Cc1ccc(S(=O)(=O)N(C)C[C@H]2Oc3c(NC(=O)Nc4ccccc4)cccc3C(=O)N([C@@H](C)CO)C[C@@H]2C)cc1	2.7	-1	-6	-2.1
CO[C@@H]1CN(C)C(=O)c2cc(NC(=O)c3ccccc3)ccc2OC[C@@H](C)NC[C@@H]1C	-1.4	1	1	-0.3
CN1C(=O)c2cc(NC(=O)C3CC3)ccc2OC[C@@H]2O[C@H](CC(=O)NCc3ccccc3F)CC[C@H]21	-3.1	1	3	-2.8
COC(=O)C[C@@H]1C=C[C@@H](NC(=O)c2ccccc2)[C@H](CO)O1	0.1	0	2	-1.4
CO[C@@H]1CN(C)C(=O)c2ccc(NS(C)(=O)=O)cc2OC[C@H](C)N(CC2CCOCC2)C[C@@H]1C	-2.4	1	-1	-2.6
Cc1noc(C)c1NC(=O)Nc1cccc2c1O[C@H](CN(C)Cc1ccc(C(=O)Nc3ccccc3N)cc1)[C@H](C)CN([C@@H](C)CO)C2=O	2.4	6	6	-1.6
CC(C)C#Cc1cnc2c(c1)C(=O)N([C@H](C)CO)C[C@H](C)[C@@H](CN(C)C(=O)Nc1cc(F)ccc1F)O2	0.7	-1	-5	-0.5
C#CCOCCOCCOCCNc1nc(N2CCN(C(=O)[C@H](C)n3cc(CCC(=O)O)nn3)CC2)nc(N2CCN(C(=O)[C@H](C)n3cc(CCC(=O)O)nn3)CC2)n1	-3.7	6	5	-3.9
O=C(C[C@@H]1CC[C@H]2[C@@H](COC[C@H](O)CN2C(=O)c2ccncc2)O1)Nc1ccc(-c2ccccc2)cc1	2.5	0	-23	1.6
COc1ccc(C[C@H]2CCc3cnnn3COC[C@@H](Cc3ccccc3)NC2=O)cc1	0.1	0	3	-5.0
Cc1ccc(S(=O)(=O)Nc2ccc3c(c2)C(=O)N([C@H](C)CO)C[C@@H](C)[C@H](CN(C)S(=O)(=O)c2c(C)noc2C)OCCCC[C@@H](C)O3)cc1	0.9	3	0	1.3
C[C@H]1CN([C@@H](C)CO)C(=O)Cc2cc(NS(C)(=O)=O)ccc2O[C@H]1CN(C)Cc1ccncc1	-2.2	1	9	0.2
C[C@@H]1CN([C@H](C)CO)C(=O)c2cccc(NS(=O)(=O)c3ccccc3)c2O[C@H]1CN(C)Cc1ccc(C(=O)Nc2ccccc2N)cc1	0.6	0	3	-0.7
COc1ccc2c3c(n(C)c2c1)[C@@H](CO)N(C(=O)Nc1ccc(F)cc1)CC31CCN(Cc2ccccn2)CC1	29*	2	-5	-1.8
O=C1CN(S(=O)(=O)Cc2ccccc2)C[C@H]2[C@@H](c3ccc(C#CC4CC4)cc3)[C@@H](CO)N12	2.0	3	-29	15
CNC[C@@H]1Oc2ccc(NC(=O)Nc3ccc(C(F)(F)F)cc3)cc2CC(=O)N([C@H](C)CO)C[C@@H]1C	0.9	1	-4	-3.0
CCC(=O)N(C)C[C@H]1Oc2cc(C#CCN(C)C)ccc2S(=O)(=O)N([C@H](C)CO)C[C@@H]1C	-2.4	6	3	0.3
COc1ccc(-c2csc(C(C)(NC(C)=O)c3ccc(OC)cc3)n2)cc1 (configuration not stated)	0.2	-1	-9	3.8
C[C@@H]1CN([C@H](C)CO)S(=O)(=O)c2ccc(-c3cccnc3)cc2O[C@@H]1CN(C)C(=O)NC1CCCCC1	2.3	-1	6	-1.4
Cc1noc(C)c1S(=O)(=O)Nc1ccc2c(c1)C(=O)N([C@@H](C)CO)C[C@H](C)[C@@H](CN(C)Cc1ccc3c(c1)OCO3)OCCCC[C@@H](C)O2	2.7	5	2	-0.2
CCCC(=O)N1CCC2(CC1)CN(C(=O)C1CC1)[C@@H](CO)c1[nH]c3cc(OC)ccc3c12	2.3	-1	8	-0.5
COc1ccccc1CNC(=O)C[C@@H]1CC[C@H]2[C@@H](COc3ccc(NS(=O)(=O)c4ccc(C)cc4)cc3C(=O)N2C)O1	-16	-2	-20	3.2
C[C@H](CO)N1C[C@H](C)[C@@H](CN(C)S(C)(=O)=O)Oc2cc(C#CC3CC3)ccc2S1(=O)=O	0.8	-3	-2	-1.0

A portion of the library (hit frequency here may not be typical).
